Screens as filed in PubChem BioAssay.
RanGTP-Impb inh: disruptors of Ran-importin-beta complex formation – biochemical, FRET, CFP-Ran, YFP-importin-beta, homogeneous, primary screen | AID 2216 | 1.1% of 300,000 active | cell-free CFP-Ran/YFP-importin-beta FRET ratio | inhibition, % (test concentration not listed);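 active = most replicates above 15%; inconclusive = exactly half above 15%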;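 also: 0% = DMSO wells and 100% = Ran loaded with GDP instead of GTP; wells of about 40 µL received 100 nL stock; the first replicate is given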
Vif A3G: inhibitors of Vif binding to APOBEC3G peptide, primary screen, biochemical, TR-FRET, GST-Vif 1-94, biotin-A3G peptide, dose response retest (AID 1117319); TR-FRET GST-Vif / biotin-A3G peptide binding; higher % means a stronger effect; test concentration not given here; strong numbers were not always called active; inhibition, %, or IC50 in µM where a hit was titrated; 0.57% of 260,000 active;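 active = above the screen mean plus three standard deviations and confirmed in dose response; inconclusive = results disagree or hit not tested in dose response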;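 also: Vif residues 1-94 fused to GST binding biotinylated APOBEC3G peptide 110-148; 0% = full assay without inhibitor and 100% = GST in place of GST-Vif; retest series ran down from 100 µM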
T cruzi repl: T. cruzi replication inhibition; T. cruzi beta-gal in NIH3T3, luminescence, 90 h; 1.4% of 300,000 active; inhibition, % (concentration not given with the values);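 active = mean inhibition across valid replicates above about 55%, limit read from the data; inconclusive = mean below that limit but half or more replicates reach it; inactive = mean below it, under half of replicates reach it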;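 also: signal also drops with host cell toxicity which is not excluded here; 0% = plate median of DMSO wells and 100% = zero luminescence signal; higher percent means less beta-gal luminescence so fewer parasites; stock transfer was 50 nL into about 50 µL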
LANA-H2A inh: blocks KSHV LANA binding to histone H2A/H2B; cell-free LANA-H2A/H2B peptide, fluorescence polarization; 0.6% of 320,000 active; Q9QR71; AID 2629; inhibition, % (concentration not given with the values); in the data active = inhibition mostly above about 10%, no sharp cut-off; inactive = mostly below about 6.7%;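 also: stock transfer was 7.5 nL into about 10 µL; 0% = median of vehicle wells and 100% = median of positive control wells; one replicate is shown; the record names a cut of 25% in any replicate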
Target sequence (Q9QR71 whole entry, looked up): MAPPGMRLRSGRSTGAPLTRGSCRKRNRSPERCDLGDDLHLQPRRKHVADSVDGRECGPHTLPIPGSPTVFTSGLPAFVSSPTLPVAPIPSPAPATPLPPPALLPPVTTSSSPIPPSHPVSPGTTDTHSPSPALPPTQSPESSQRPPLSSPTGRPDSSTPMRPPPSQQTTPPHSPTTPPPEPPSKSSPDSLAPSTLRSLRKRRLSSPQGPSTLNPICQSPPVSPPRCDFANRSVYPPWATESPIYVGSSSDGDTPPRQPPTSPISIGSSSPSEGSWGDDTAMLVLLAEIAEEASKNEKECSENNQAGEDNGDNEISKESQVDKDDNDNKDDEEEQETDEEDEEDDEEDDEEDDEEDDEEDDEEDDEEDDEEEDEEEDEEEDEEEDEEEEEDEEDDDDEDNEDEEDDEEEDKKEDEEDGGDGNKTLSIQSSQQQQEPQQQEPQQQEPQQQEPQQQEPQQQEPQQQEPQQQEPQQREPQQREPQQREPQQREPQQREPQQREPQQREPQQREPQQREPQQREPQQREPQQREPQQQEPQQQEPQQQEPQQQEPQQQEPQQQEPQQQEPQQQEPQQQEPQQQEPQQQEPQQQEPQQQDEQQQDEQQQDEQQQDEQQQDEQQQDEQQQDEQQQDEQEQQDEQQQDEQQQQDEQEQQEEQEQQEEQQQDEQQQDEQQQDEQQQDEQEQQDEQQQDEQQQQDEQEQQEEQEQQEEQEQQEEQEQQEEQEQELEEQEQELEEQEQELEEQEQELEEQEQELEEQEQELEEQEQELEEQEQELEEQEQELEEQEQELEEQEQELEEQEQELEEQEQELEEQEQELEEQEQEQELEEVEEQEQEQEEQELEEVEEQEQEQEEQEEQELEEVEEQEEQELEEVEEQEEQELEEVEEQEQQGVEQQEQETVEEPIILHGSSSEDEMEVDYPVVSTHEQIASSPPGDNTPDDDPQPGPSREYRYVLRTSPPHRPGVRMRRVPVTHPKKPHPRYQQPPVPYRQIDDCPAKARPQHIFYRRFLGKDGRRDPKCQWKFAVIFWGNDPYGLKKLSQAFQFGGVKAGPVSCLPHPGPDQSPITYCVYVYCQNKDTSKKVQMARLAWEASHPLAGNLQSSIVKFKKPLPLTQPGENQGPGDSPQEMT
Calb FLC: affects C. albicans growth with fluconazole | C. albicans CaCi-2 (fluconazole-resistant clinical isolate) + fluconazole, Alamar Blue growth, 48 h | growth inhibition, % (test concentration not listed) | 0.57% of 300,000 active | AID 1979;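 active = most replicates above 75%; inconclusive = exactly half above 75%; inactive = most below 75%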;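 also: all wells also contain fluconazole at 8 µg/ml as a sub-toxic cotreatment; 0% = median of DMSO wells and 100% = median of geldanamycin control wells; wells of about 8 µL received 7.5 nL stock; the first replicate is given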
Beta apoptosis: beta cell apoptosis inhibition | INS-1E cytokine-induced death, ATP luminescence, 48 h; percent of positive-control rescue, neutral wells zero | protection from apoptosis, % (test concentration not listed) | 0.8% of 300,000 active;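 active = all replicates at 75% or more, or half of them and the mean; inconclusive = half reach 75% but not the mean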;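 also: 0% = cytokine-treated negative control wells and 100% = positive control rescue; higher means more ATP so stronger rescue from cytokine killing; wells of about 40 µL received 100 nL stock; the first replicate is given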
A1 inh: inhibitors of the anti-apoptotic protein A1, read as caspase activation; MEF A1-2A-BIM cells, Caspase-Glo 3/7 luminescence, 3 h; percent of clofoctol response, vehicle zero; caspase activation, % (test concentration not listed); 0.066% of 330,000 active; AID 2462;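 active = over half of replicate activation scores above 10%, or exactly half above 10 with the replicate mean above 10; inconclusive = replicate mean below 10 yet half the replicates above 10; inactive = over half of replicates below 10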;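 also: wells of about 30 µL received 50 nL stock; many hits fall short of the cut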
AF4-AF9 inh: MLL-AF4/AF9 protein interaction inhibition. AID 651704. 0.47% of 350,000 active. inhibition, % at 10 µM. AlphaScreen, biotin-AF4 peptide binding to FLAG-AF9. P42568;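 active = every replicate reaching a set inhibition limit, whatever the replicate mean, cut at about 25% in these data; inconclusive = mean inhibition reaches that limit but some replicates miss it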;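 also: 0% = plate neutral control median and 100% = total signal loss; the record names both 10 and 1 µM as test concentration; the first replicate is given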
The depositor's hits bear a star; ? = inconclusive; . = no result given.

SMILES	RanGTP-Impb inh	Vif A3G	T cruzi repl	LANA-H2A inh	Calb FLC	Beta apoptosis	A1 inh	AF4-AF9 inh
Cc1ccc(NC(=S)NNC(=O)CSc2nc3ccccc3c(=O)n2-c2ccc(C)cc2)cc1	1.0	-1.0%	33.6	1.1	-1.1	15.6	-0.3	.
O=C(CSc1nnc2c3c4c(sc3ncn12)CCCC4)NCc1ccco1	-2.2	-8.5%	7.1	1.0	?	1.6	0.3	.
CC12CCC(C(=O)NNC(=O)c3ccccc3)(OC1=O)C2(C)C (stereo not given)	2.2	.	-0.5	-4.2	6.2	-3.0	-0.6	-1.4
CCOc1ccc(CNC(=O)CCS(=O)(=O)Cc2ccccc2C)cc1OC	-0.8	.	5.5	0.4	-1.9	-4.6	0.5	2.0
CN(C(=O)Cc1c(C(=O)O)n(C)c2ccccc12)c1cccc(C(F)(F)F)c1	0.3	-0.2%	-15.3	-0.5	9.1	-0.9	0.7	-0.2
COc1cc(OC)c(OC)cc1/C=C1\Oc2cc(OCC(=O)N3Cc4ccccc4C[C@H]3C(=O)O)ccc2C1=O	-123.1	.	14.9	-6.6	13.3	5.7	-0.2	.
CN(c1ccc(Cl)cc1)S(=O)(=O)c1nnc(NC(=O)C(C)(C)C)s1	-2.2	-2.5%	-1.5	3.8	5.8	2.9	1.8	-1.0
COc1ccc(-n2nc(C(=O)NCC(=O)N3CCN(c4ccc(F)cc4)CC3)c3ccccc3c2=O)c(OC)c1	-2.8	.	8.5	-2.1	98.9*	4.3	-0.2	3.3
COc1cc(OC)cc(N(C(=O)C2COc3ccccc3O2)C(C(=O)NC2CCCCC2)c2ccc(O)cc2)c1 (stereo not given)	-1.4	-2.9%	18.1	-5.0	90.5*	.	0.9	.
O=C(CSc1nc2ccccc2c(=O)n1-c1ccccc1)N1CCc2ccccc21	-7.8	.	4.7	2.0	0.0	8.4	0.9	.
O=S(=O)(c1cccc(NC(=S)Nc2ccc(Br)cc2Cl)c1)N1CCOCC1	-0.4	8.9%	-15.9	-2.6	5.2	5.1	-0.6	.
Cc1ccc(NC(=O)c2cccnc2)cc1C	-1.6	.	-12.2	-3.7	-6.1	-7.4	-1.2	-3.9
CCCCN(CC)C(=O)c1n[nH]c(=O)c2ccccc12	-1.0	31.7%	-0.9	1.8	22.6	0.0	-0.1	.
Cc1c(Cc2ccc3c(c2)OCO3)sc(NC(=O)C(C)(C)C)c1C#N	6.1	-2.6%	-6.0	-4.5	-1.2	-2.2	-0.6	2.8
COc1ccc(/C=N\NC(=O)c2ccccc2)cc1COc1ccccc1	-3.9	-6.9%	1.9	-1.4	7.0	-4.1	-0.6	-3.0
O=C(Nc1cccnc1)Nc1ccccc1Cl	2.4	-2.9%	-20.8	-3.2	33.9	1.2	-4.9	.
CCOc1ccccc1NC(=O)CSC1=NN2CCCC(=O)N=C2S1	-3.5	.	-0.1	-2.0	-3.1	4.5	-0.1	0.4
CCC(=O)N/N=C(\C)CC(=O)Nc1ccccc1-c1ccccc1	-5.9	12.5%	0.6	4.0	1.5	1.6	1.5	-0.1
CN(C(=O)c1cccc(NC(=O)Cc2cccc([N+](=O)[O-])c2)c1)C1CCCCC1	.	.	.	4.0	.	-12.2	1.1	7.4
Cn1c(-c2ccccc2)c[n+]2c1-c1ccccc1C2	0.7	-1.2%	24.6	0.8	-36.3	12.3	0.1	-2.2
CC(C)(C)c1ccc(/C=C/C(=O)N2CCN(c3ncccn3)CC2)cc1	2.3	-2.1%	1.2	-3.1	26.1	-10.7	0.8	1.7
O=C(CSc1nnc2ccc(-c3cccnc3)nn12)Nc1ccc(F)cc1F	0.0	8.4%	-11.3	-0.3	-0.6	-4.8	-0.3	3.0
CCCNC(=O)CS(=O)(=O)Cc1nc(-c2cccc(OC)c2)oc1C	-0.3	-2.6%	-1.5	-2.8	3.4	-2.4	-1.6	-0.7
O=[N+]([O-])c1cc([N+](=O)[O-])c2nonc2c1Nc1ccc(O)cc1	-4.9	.	-6.8	-4.7	38.6	0.4	-0.7	13.4
COc1ccc(S(=O)(=O)NCC(c2ccc(C)cc2)N2CCN(C)CC2)cc1 (stereo not given)	-0.4	2.8%	-0.6	-3.5	-4.1	-0.4	-0.2	-2.2
Cc1ccccc1Cc1c(C)nc2c(C(=O)NCc3ccco3)cnn2c1C	0.4	8.2%	15.6	-1.2	17.5	21.9	0.0	-4.0
Clc1ccc(Cl)c(-c2nn3c(COc4ccccc4)nnc3s2)c1	-0.4	?	19.2	0.8	-7.8	5.9	1.4	.
CCOc1cccc(C(=O)N2CCCN(C)CC2)c1	0.4	.	-9.9	-2.8	-9.8	3.6	-0.1	-4.5
Cc1ccc(C)c(NC(=O)Cn2ccn(-c3ccc4c(c3)OCO4)c(=O)c2=O)c1	4.9	1.1%	-10.9	-1.1	7.0	1.5	-0.5	-29.9
CCOC(=O)CNC(=O)C1c2ccccc2C(=O)N(c2ccc(OC)cc2)C1c1ccc(OC)cc1 (stereo not given)	4.6	1.6%	8.2	5.2	4.7	-0.9	1.0	.
O=S(=O)(c1ccc(F)cc1)N1CCN(CCc2ccccc2)CC1	2.2	.	-3.3	-1.7	-2.5	-6.7	0.5	3.3
O=C(COC(=O)C(Cc1ccccc1)NC(=O)c1cccs1)NCc1ccccc1 (stereo not given)	.	3.9%	.	-1.2	.	-5.7	-0.3	0.8
Cc1cc2c3c(c1)C1(SCC(=O)N1c1ccc(F)cc1)C(=O)N3C(C)(C)CC2C (stereo not given)	?	8.8%	2.4	2.8	4.1	4.3	0.3	.
COc1ccc(OC)c(-n2cnc3cc(C(=O)O)ccc32)c1	2.4	9.1%	-4.8	-8.2	-3.9	1.2	0.2	.
COC(=O)c1ccc(Cn2nc(-c3ccccc3)ccc2=O)cc1	1.7	-10.4%	-2.9	-4.5	-19.0	-1.4	-0.1	0.5
COc1cc(C)c(S(=O)(=O)NOCc2ccc([N+](=O)[O-])cc2)c(C)c1C	?	4.8%	12.0	3.3	23.2	-0.5	-0.7	-15.5
O=C(N1CCOCC1)n1cnc2ccccc21	3.0	23.4%	1.2	-1.0	10.2	-3.0	0.3	.
COCCNC(=O)/C(C#N)=C/c1c(N2CCCCCC2)nc2ccccn2c1=O	-0.1	0.3%	9.3	-7.4	-12.4	-2.5	0.4	1.6
COc1ccc(O)c(C(=O)c2cnc3c(c2)c(C)nn3CCO)c1	-2.8	?	-3.3	-6.4	1.3	-2.0	0.3	-4.3
Clc1cccc(Oc2cnns2)c1Cl	-2.0	-0.9%	-1.9	-9.2	5.4	3.6	1.6	.
CCN(CC)CCCN(Cc1cc2cc3c(cc2[nH]c1=O)OCO3)C(=S)Nc1ccc(OC)cc1	-24.4	-10.0%	5.6	0.6	-8.6	.	1.3	6.4
CC(=O)Nc1ccc(NS(=O)(=O)c2ccc(Cl)c(C(=O)O)c2)cc1	1.6	9.4%	-12.2	3.0	1.0	-11.1	0.8	-29.5
CCCCCC(=O)C(=O)c1ccc(O)cc1O	2.7	?	-20.3	1.1	-1.0	-1.6	0.8	-0.4
O=C(Cc1ccc(Cl)cc1Cl)NCC1(N2CCOCC2)CCCCC1	1.7	-14.4%	4.3	-1.5	-17.7	0.8	0.0	-1.3
CC(C)(C)c1ccc(C(=O)NCC2CCCN2S(=O)(=O)c2ccccc2)cc1 (stereo not given)	1.8	-5.8%	34.0	-3.1	-5.0	17.4	1.6	-28.5
O=C(NC1CCCCCC1)C1CCN(S(=O)(=O)c2ccccc2)CC1	-1.6	26.2%	-1.1	-3.1	9.1	-1.0	-2.4	.
O=C(O)c1cccc(-n2nnnc2SCc2ccccn2)c1	-4.0	9.8%	-10.1	1.9	-16.4	-5.4	1.8	.
C/C(=N\NC(=O)c1cccs1)c1ccc(C(=O)O)s1	4.9	0.4%	-9.2	-1.8	-3.0	-3.1	-0.1	-0.7
COC(=O)C1=CN(CC2CCCO2)C=C(C(=O)OC)C1c1ccsc1 (stereo not given)	10.7	14.8%	4.5	-1.5	-1.9	2.6	1.0	.
COc1cccc(-c2sc3ccc(OC)cc3c2-c2ccc(C(N)=O)cc2)c1	.	.	.	-4.2	.	-5.0	-0.9	-2.3
(listing goes on)
SMILES	RanGTP-Impb inh	Vif A3G	T cruzi repl	LANA-H2A inh	Calb FLC	Beta apoptosis	A1 inh	AF4-AF9 inh
COC(=O)c1ccc(C(=O)OC)c(NC(=O)Oc2ccccc2)c1	14.1	12.1%	-13.8	-1.8	0.6	.	-3.2	1.1
Cc1ccc2nc(NC(=O)c3cc(-c4ccco4)nc4ccccc34)sc2c1	1.9	13.2%	-6.6	-0.9	-3.9	1.0	-2.8	2.1
COc1ccc(S(=O)(=O)n2c([N+](=O)[O-])cnc2C)c(C)c1C	-0.7	.	3.2	5.8	-7.3	-2.9	1.8	-3.0
O=C(CSc1nncn1-c1ccccc1)NC1CCCc2ccccc21 (stereo not given)	-3.6	.	6.6	-8.6	-25.9	-4.0	0.0	1.8
CN(C(=O)c1cccc(NC(=O)Cc2cccc([N+](=O)[O-])c2)c1)C1CCCC1	.	.	.	1.1	.	-7.4	0.3	2.8
COc1cc(C(C2=C(O)CC(C)(C)CC2=O)C2C(=O)CC(C)(C)CC2=O)cc(OC)c1OC (stereo not given)	-2.0	2.9%	-9.2	0.9	-7.3	.	0.4	-2.1
CCN(CC)S(=O)(=O)c1cccc(C(=O)NC(Cc2c[nH]c3ccccc23)c2nnc3n2CCCCC3)c1 (stereo not given)	2.0	0.5%	-1.7	-4.3	-10.7	6.7	-0.4	.
O=S(=O)([N-]c1nc2ccccc2nc1-[n+]1ccc(Cc2ccccc2)cc1)c1ccc(Br)s1	-5.0	28.1%	40.3	-1.0	-3.8	117.7*	-0.5	13.4
O=C(O)CCC(=O)NCc1ccc(F)cc1	-0.1	7.5%	-6.6	0.9	7.6	-1.5	-2.7	.
CCCN(CC(=O)Nc1ccccc1C)C(=O)CCCc1c[nH]c2ccccc12	.	-5.7%	.	0.1	.	-2.6	1.4	-1.6
Cc1ccc(-c2nc(C(Cl)Cl)c3ccccc3n2)cc1	-3.3	0.5%	50.1	-8.3	1.5	93.7*	0.5	.
Cc1oc(-c2cccs2)nc1CSCC(=O)NC1CC1	0.9	-3.6%	-8.1	0.2	-1.9	-2.2	-0.2	.
O=C(OCc1ccc([N+](=O)[O-])cc1)C1CC(=O)N(Cc2ccccc2)C1 (stereo not given)	.	2.2%	.	3.5	.	-2.3	0.0	3.3
Cc1cc(C)cc(NC(=O)c2cc(S(=O)(=O)NCc3ccco3)ccc2F)c1	?	14.6%	36.4	-2.7	26.1	-5.7	-1.1	.
Cc1cc(C(=O)Cn2ncc(Cl)c(Cl)c2=O)c(C)n1CC(F)(F)F	-0.4	.	-29.4	1.1	-3.2	.	0.8	7.9
CSc1ccccc1C(=O)NCC(c1ccco1)N1CCCCC1 (stereo not given)	-2.5	?	2.4	1.9	-11.6	-11.5	0.1	1.8
